Lassa entry inh: qHTS for Inhibitors of binding or entry into cells for Lassa Virus; Lassa virus pseudotype entry inhibition, cell reporter; control for the full effect not named in the record; Potency, µM (top dose mostly 37.9 µM), for inactives: at the highest dose activity change, negative = inhibition, usual class: inhibitors; 300,000 compounds, 1.2% hits; active means well fitted inhibition curve with a large enough effect; inconclusive means small, poorly fitted or top-dose-only effect, or effect the other way; inactive means flat fitted curve, though single readings scatter; tested in HEK293 cells; note: % is set by controls: 0 for no effect and ±100 for the full control effect; nearly all actives have a fitted effect of over 50% in size; luciferase read-out
Cruzain noTriton: qHTS Assay for Promiscuous and Specific Inhibitors of Cruzain (without detergent); Cruzipain (Trypanosoma cruzi), P25779; purified cruzain, Z-FR-AMC fluorescence, no detergent; Potency, µM, without a hit: max response, negative = inhibition, usual class: inhibitors; 200,000 compounds, 2.3% hits;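 note: plate controls were enzyme without inhibitor for no effect and buffer without enzyme for full effect; nearly all actives have a fitted effect of over 40% in size; top concentration of the series not given in the record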
Target sequence (P25779 123-467 limits assumed): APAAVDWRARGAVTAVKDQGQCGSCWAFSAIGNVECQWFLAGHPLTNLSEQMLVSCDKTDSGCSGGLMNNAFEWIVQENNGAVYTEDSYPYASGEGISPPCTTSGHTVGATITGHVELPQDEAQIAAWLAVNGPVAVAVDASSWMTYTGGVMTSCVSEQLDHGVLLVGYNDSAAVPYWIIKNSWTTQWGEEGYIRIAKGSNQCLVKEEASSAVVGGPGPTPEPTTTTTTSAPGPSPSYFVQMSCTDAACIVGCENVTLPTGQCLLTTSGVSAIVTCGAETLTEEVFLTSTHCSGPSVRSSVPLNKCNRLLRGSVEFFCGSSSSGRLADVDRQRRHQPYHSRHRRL
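Purified cruzain at 1.5 nM, pre-incubated 15 min with compound at room temperature in 100 mM sodium acetate pH 5.5, 5 mM DTT, 0.00005% Triton X-100. Reaction started with 2 uM Z-FR-AMC; AMC fluorescence increase over 60 s gives rate.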
Cruzain inh Det: qHTS Assay for Promiscuous and Specific Inhibitors of Cruzain (with detergent); 200,000 compounds, 0.43% hits; AID 1478, 2009; purified cruzain, Z-FR-AMC fluorescence, 0.01% Triton; Potency, µM, inactives show max response, negative = inhibition, actives largely listed as inhibitors;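 note: plate controls were neutral wells for no effect and buffer without enzyme for full effect; nearly all actives have a fitted effect of over 40% in size; top concentration of the series not given in the record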
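15 min RT preincubation of 1.5 nM cruzain with compound, then 2 uM Z-FR-AMC added; kinetic AMC fluorescence, 60 s delta. Triton X-100 0.01%, pH 5.5.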
MARV entry inh: qHTS for inhibitors of binding or entry into cells for Marburg Virus. Potency, µM (top dose mostly 37.8 µM), for inactives: at the top dose activity change, negative = inhibition, actives largely listed as inhibitors. 300,000 compounds, 1.8% hits. Marburg virus pseudotyped entry inhibition, cell reporter; control for the full effect not named in the record; about a third of the inactives were read at about 46 µM; active = well fitted inhibition curve with a large enough effect; inconclusive = small, poorly fitted or top-dose-only effect, or effect the other way; inactive = flat fitted curve, though single readings scatter; tested in HEK293 cells; about a fifth of its hits are not listed in these tables; note: % is set by controls: 0 for no effect and ±100 for the full control effect; luciferase read-out
2A StopGo: High Throughput Screening for Foot and Mouth Disease Virus Antivirals. 410,000 compounds, 1.2% hits. human cells with a luciferase reporter of 2A StopGo recoding; control for the full effect not named in the record. Potency, µM (top dose mostly 57.9 µM), for the others: top-dose signal change, negative = less light; active = well fitted falling curve with a large enough effect; inconclusive = small, poorly fitted or top-dose-only effect; inactive = no such curve, though single readings can be large or run the other way; tested in HEK293T cells; note: % is set by controls: 0 for no effect and ±100 for the full control effect; nearly all actives have a fitted effect of over 45% in size; luciferase light after 4 h
SARS PLP yeast: qHTS of Yeast-based Assay for SARS-CoV PLP. S. cerevisiae expressing SARS-CoV PLpro, growth rescue; control for the full effect not named in the record. Potency, µM (titrated, usually from 32.9 µM), for the others: at the highest dose activity, positive = growth rescue. 330,000 compounds, 0.19% hits; active means well fitted rising curve with a large enough effect; inconclusive means small, poorly fitted or top-dose-only effect; inactive means no such curve, though single readings can be large or run the other way; note: 0% is about no effect; nearly all actives have a fitted effect of over 55% in size; growth read by luminescence after 48 h
RE007 growth inh: qHTS Assay for Inhibitors of the HIV-1 protein Vpr; Potency, µM (highest dose often 92.2 µM), without a hit: at the top dose activity change, negative = less growth; 360,000 compounds, 0.21% hits; S. pombe RE007 Vpr strain, BacTiter-Glo ATP luminescence, 24 h; control for the full effect not named in the record; active = well fitted falling curve with a large enough effect; inconclusive = small, poorly fitted or top-dose-only effect; inactive = no such curve, though single readings can be large or run the other way;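 note: % is set by controls: 0 for no effect and ±100 for the full control effect; nearly all actives have a fitted effect of over 50% in size; the assay follows cell death caused by Vpr and the record does not say whether a fall means rescue or toxicity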
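Fission yeast strain RE007, carrying one chromosomally integrated HIV-1 vpr copy, was seeded at OD 0.01 in PMG+AL medium with 23 nL pinned compound. After 24 h at 30 °C and 99% humidity, viability was read by BacTiter-Glo luminescence.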
NS1 function inh: qHTS Assay for Inhibitors of Influenza NS1 Protein Function; S. cerevisiae slowed by influenza A NS1, growth recovery by OD600; Potency, µM (series often up to 46.1 µM), without a hit: top-dose activity, positive = more growth; 270,000 compounds, 0.4% hits; AID 2326, 2010; active means well fitted rising curve with a large enough effect; inconclusive means small, poorly fitted or top-dose-only effect; inactive means no such curve, though single readings can be large or run the other way; note: nearly all actives have a fitted effect of over 50% in size
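S. cerevisiae expressing influenza A NS1, grown in glucose, washed, then diluted 1:100 into pH 6.0 -URA galactose medium with 23 nl compound. Growth recovery read as OD600; NS1-free strain serves as control.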
An asterisk follows results filed as active; ? = inconclusive; nt = no result given; & = joins results of further samples; [ ] = dose if it differs, or a comment. Unless noted, calls come from the whole dose curve; as a rule, active = well fitted curve in the direction sought with a large enough effect; inconclusive = small, poorly fitted or top-dose-only effect, or another doubt; inactive = no such curve, though single readings can be large; an effect the other way counts as inactive or inconclusive. Potency is the fitted concentration of half-maximal effect.

Below each SMILES: Lassa entry inh	Cruzain noTriton	Cruzain inh Det	MARV entry inh	2A StopGo	SARS PLP yeast	RE007 growth inh	NS1 function inh
O=[N+]([O-])c1ccc(CSc2nnc(-c3cnccn3)o2)cc1
 : 18%	-6%	0.5%	2%	-6%	-8%	0%	5%
Cc1cccc(NC(=O)CSc2nc3c(c(=O)[nH]2)CCC3)c1C
 : 20%	0%	-2.7%	5%	-12%	-1%	27%	0%
Cc1ccc(NC(=S)N/N=C/c2cccn2Cc2ccccc2F)cc1
 : ?	nt	nt	-12%[46.1 µM]	-17%	0%	-3%	-5%
Cc1ccc(C(=O)C2=C(O)C(=O)N(CCCN(C)C)C23C(=O)N(C)c2ccccc23)o1 (stereo unspecified)
 : 6%	-6%	-3.5%	-1%	nt	3%	-8%	1%
O=C(Nc1cccc(F)c1)c1ccc(Cn2cc([N+](=O)[O-])cn2)o1
 : nt	nt	nt	-22%[46.1 µM]	?	0%	0%	nt
Cc1ccc(-c2nnc(-c3cccnc3)o2)cc1
 : nt	nt	nt	nt	21%	0%	-24%	-14%
COc1ccc(NC(=O)c2cc3cc(C)ccc3n2C)c(OC)c1
 : 1%	nt	nt	?	1%	-5%	-23%	-17%
CC(=O)N1CCN(CCN=CC2=C(O)CC(c3cccs3)CC2=O)CC1 (stereo unspecified)
 : 8%	-7%	0.9%	-4%	-23%	-3%	1%	-13%
ClCCN1CCN(c2ccnc3cc(Cl)ccc23)CC1
 : nt	nt	nt	nt	-26%	3%	8%	?
Cn1c(O)c(C=NC2CCN(Cc3ccccc3)CC2)c(=O)n(C)c1=O
 : -1%	?	-3.2%	-4%&-4%[46.1 µM]	-7%	-2%	-23%	8%
CN(CC(=O)Nc1ccccc1Cl)C(=O)COC(=O)CN1C(=O)NC2(CCCC2)C1=O
 : 12%	nt	nt	3%	2%	1%	-12%	-3%
Clc1ccc(CSc2nnc3c(n2)[nH]c2ccccc23)cc1
 : nt	nt	nt	nt	1%	5%	-11%	9%
COc1ccc(C(=O)N2CCN(C(=O)C3COc4ccccc4O3)CC2)cc1OC (stereo unspecified)
 : nt	nt	nt	nt	-15%	-3%	-6%	5%
CCCC(c1c(C)n(C)n(-c2ccccc2)c1=O)c1c(C)n(C)n(-c2ccccc2)c1=O
 : -4%	-8%	-1.0%	18%	14%	5%	-23%	-5%
COc1cc(NC(=S)Nc2ncccc2C)cc(OC)c1OC
 : nt	nt	nt	nt	7%	-2%	-20%	0%
CC(C)CC1C(C#N)=C(N)Oc2n[nH]c(-c3cccs3)c21 (stereo unspecified)
 : 10%	-1%	-5.4%	3%	-27%	-13%	-10%	2%
O=C(Nc1cccc(Cl)c1)c1ccc2c(c1)SC1=NS(=O)(=O)CCN12
 : ?	nt	nt	?	-19%	0%	-21%	6%
CC(=O)c1cccc(NC(=O)C2CCN(c3nnc(-n4cccc4)s3)CC2)c1
 : ?	1%	-5.7%	nt	1%	nt	nt	nt
O=C(COc1ccc(Cl)cc1)N1CCN(C(=O)c2cccs2)CC1
 : ?	nt	nt	?	-27%	2%	22%	6%
CC(C)NC(=O)c1ccc(Cn2c(SCC(N)=O)nc3ccccc3c2=O)cc1
 : 11%[46.1 µM]	-1%	0.3%	nt	-13%	nt	nt	nt
COc1cccc(CNC(=O)C2CCN(C(=O)c3cnn(-c4ccccc4)c3-n3cccc3)CC2)c1
 : -22%[46.1 µM]	?	-5.8%	?	?	nt	nt	nt
CCCN(CCC)C(=O)Cn1c(=O)n(-c2ccc(CC)cc2)c(=O)c2ccc(C(=O)NCCc3ccccc3)cc21
 : -7%[46.1 µM]	0%	-1.2%	14%[46.1 µM]	-17%	nt	nt	nt
CN1CCC(N2CCCC(C(=O)O)C2)CC1 (stereo unspecified)
 : 11%	-11%	3.5%	18%	9%	-4%	6%	1%
CCCc1cc(=O)n2[nH]c(C)c(-c3ccccc3)c2n1
 : -17%	-1%	-4.1%	-6%	-24%	5%	0%	0%
CC1(C)CC(=O)C(N=Nc2cc(Cl)c(Cl)c(Cl)c2)=C(O)C1
 : 4%	-8%	-5.8%	-1%[46.1 µM]	28%	-1%	-12%	-1%
Cc1ccc(CNC(=O)C(C)C2Sc3ccccc3NC2=O)cc1 (stereo unspecified)
 : 10%	nt	nt	-5%	18%	1%	0%	-3%
Fc1cccc(CNCCc2c[nH]c3ccccc23)c1
 : nt	nt	nt	nt	12%	8%	-3%	22%
O=C(O)C=C1C2CC3CC(C2)CC1C3
 : 6%	-2%	-3.5%	?	-24%	4%	1%	-23%
CS(=O)(=O)N(Cc1ccco1)CC(O)Cn1cc(C=O)c2ccccc21 (stereo unspecified)
 : 6%	6%	-1.2%	5%	?	10µM*	5%	-2%
COc1ccc(N=C(C)C2=C(O)CSC2=O)cc1
 : 3%	-6%	-3.0%	?	nt	-2%	16%	-4%
Cn1nc(Oc2nc(N3CCOCC3)nc(N3CCOCC3)n2)ccc1=O
 : 5%	-4%	1.3%	-2%	0%	-8%	-4%	-4%
CCOc1nc(NC(=O)NS(=O)(=O)Oc2cccc(Cl)c2)nc(-c2ccccc2)n1
 : 28%	2%&9%	-1.6%&-1.8%	?	0%&33%	-5%	-21%	3%
COc1cccc(C(=O)NCC(c2ccc3c(c2)OCO3)N2CCOCC2)c1 (stereo unspecified)
 : ?	-9%	0.2%	nt	-10%	nt	nt	nt
Cc1csc(SCC(=O)Nc2ccc3c(c2)OCCO3)n1
 : 25%	nt	nt	-12%[46.1 µM]	48%[activator]	-2%	15%	0%
CC(C(=O)c1c[nH]c2ccccc12)N1CCc2ccccc2C1 (stereo unspecified)
 : 0%	3%	-7.7%	-8%	-23%	0%	-9%	-9%
O=C(O)COc1ccc(/C=N/NC(=O)COc2nsnc2N2CCOCC2)cc1
 : 0%	nt	nt	0%	-14%	0%	0%	4%
Cc1ncc(CN2CCCC(C(=O)Nc3ccc(-c4ccco4)cc3)C2)cn1 (stereo unspecified)
 : nt	nt	nt	nt	-13%	4%	-6%	10%
CN(CC(=O)Nc1cccc(S(=O)(=O)N(C)C)c1)Cc1ccccc1
 : 9%[46.1 µM]	nt	nt	-21%[46.1 µM]	41%[activator]	1%	7%	6%
O=C(COc1ccccc1[N+](=O)[O-])Nc1ccccc1N1CCCCC1
 : ?	nt	nt	?	?	3%	23%	9%
COc1ccc(CCC(C)NCc2cc(OC)cc(OC)c2)cc1 (stereo unspecified)
 : nt	nt	nt	nt	-1%	-3%	-8%	-9%
CC1(C)C(=O)NCCN1C(=O)CCC(=O)O
 : ?	4%	4.3%	9%	nt	12%	-10%	7%
CC(C)(C)c1ccc(/C=C/C(=O)Nc2ccncc2)cc1
 : ?	-3%	-13%	?	-23%	?	-15%	-19%
CCc1nnc(NS(=O)(=O)c2ccc(N3C(=O)c4ccc(C(=O)O)cc4C3=O)cc2)s1
 : 11%	nt	nt	17%[46.1 µM]	3%	0%	6%	3%
COC(CNC(=O)c1ccc2c(c1)ncn2-c1ccc(F)c(F)c1)OC
 : 2%	nt	nt	5%	8%	2%	-9%	nt
CS(=O)(=O)Nc1ccccc1C(=O)Nc1ccccc1C(=O)N1CCCC1
 : 23%[46.1 µM]	nt	nt	-1%[46.1 µM]	3%	5%	-2%	11%
CC(=O)c1cn(CCC(C)C)c(=O)[nH]c1=O
 : 2%	-2%	2.7%	-4%	-2%	18%	8%	9%
COCCn1c(SCC(=O)N2CCOCC2)nc2ccccc2c1=O
 : nt	nt	nt	-12%[46.1 µM]	5%	0%	1%	3%
COCCNC(=O)C(c1ccc(C)o1)N(Cc1cccs1)C(=O)c1snc(C(N)=O)c1N (stereo unspecified)
 : ?	-6%	-2.3%	?	2%	1%	-7%	-7%
CC(C)(C)c1cc(N)on1
 : ?	5%	0.1%	?	-16%	1%	9%	-22%
Cc1ccc(S(=O)(=O)N(CC(=O)NC2CCCC2)c2cccc(C)c2)cc1
 : -1%	-7%	-2.0%	-24%	3%	?	-3%	-33%

(list continues)
Below each SMILES: Lassa entry inh	Cruzain noTriton	Cruzain inh Det	MARV entry inh	2A StopGo	SARS PLP yeast	RE007 growth inh	NS1 function inh
CC(C)c1ccc(NC2CCCN(C(=O)c3cc(C(C)C)nc(N)n3)C2)cc1 (stereo unspecified)
 : nt	nt	nt	nt	-19%	-4%	-9%	9%
S=c1[nH]nc(-c2ccc(Cl)cc2)n1-c1ccc2c(c1)OCCO2
 : -2%	-6%	-7.3%	9%	0%	-5%	27%	5%
COc1ccc(C(CC(=O)N2CCCC(C)C2)c2c(OC)cc(OC)c3c(-c4ccccc4)cc(=O)oc23)cc1 (stereo unspecified)
 : nt	nt	nt	nt	59%[activator]	-3%	8%	5%
O=C(NCc1ccc(Cl)cc1)c1ccc(CNc2c(N3CCOCC3)c(=O)c2=O)cc1
 : nt	nt	nt	nt	11%	1%	3%	-2%
COc1ccc(OCC(O)CNS(=O)(=O)c2ccc(C)cc2)cc1 (stereo unspecified)
 : nt	nt	nt	0%	-4%	0%	4%	-3%
CCN1CCN(c2ccc(NC(=O)c3cccc(F)c3)cc2Cl)CC1
 : 21%	nt	nt	?	46%[activator]	-2%	-15%	-2%
CSCCC(=O)N1C(C)CCCC1C(=O)O (stereo unspecified)
 : -2%	2%	-0.8%	-3%	-6%	4%	19%	6%
COc1ccc(C2CC(c3ccc4ccccc4c3)=NN2C(=O)CNC2CCCCC2)cc1 (stereo unspecified)
 : nt	nt	nt	nt	?	-6%	5%	6%
Cn1c(=O)[nH]c(=O)c2c1nc(N1CCC(Cc3ccccc3)CC1)n2Cc1ccccc1
 : nt	-2%	-12%	-9%	?	4%	25%	3%
CC(=O)NS(=O)(=O)c1ccc(NC(=O)C2C3C=CC(C3)C2C(=O)O)cc1 (stereo unspecified)
 : ?	3%	0.2%	-3%	-6%	-1%	-6%	-14%
CCC(C(=O)OC)n1cnc2scc(-c3ccc(C)cc3)c2c1=O (stereo unspecified)
 : nt	nt	nt	nt	-15%	-23%	-11%	-148%

Compound activity deposited in PubChem BioAssay by National Center for Advancing Translational Sciences (NCATS).
